# Vaccinia stage – blocks a specific stage of Vaccinia orthopoxvirus infection, primary screen, cell-based, single point; activity change (mCherry), % (concentration not given with the values); hit rate 0.01% among 89,000; Vaccinia-infected cells, mCherry/Venus stage reporter fluorescence; stronger effect = lower value; some inactives read as strong as hits;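 active = mCherry past -33% and 40 or more points under the early reporter, replicates agreeing; inconclusive = past -33% without that gap or agreement; tested in A549 cells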;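 also: scaled between vehicle wells and reference inhibitor wells; 23 nL library stock went into each well; one replicate is shown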
# Vaccinia stage Venus – further read-out of Vaccinia stage, marked with its call; activity change (Venus), %; measured here: Venus reporter, other viral stage;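 negative = less Venus signal; first of two replicates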
# * hit, by the source's call; ? = inconclusive; / = no result given; & = joins results of further samples. A portion of the library; rates above refer to the full screens.
SMILES,Vaccinia stage,Vaccinia stage Venus
O=S(=O)(NC[C@H]1N[C@H](CO)[C@@H]1c1ccccc1)c1ccccc1,-6.5,-5.7
Cc1ccc(S(=O)(=O)N(C)C[C@H]2Oc3ccc(NS(=O)(=O)c4cccs4)cc3C(=O)N([C@H](C)CO)C[C@@H]2C)cc1,12.1,13.7
COc1ccc(CN(C)C[C@H]2OCCCC[C@H](C)Oc3ccc(NC(=O)Nc4cccc5ccccc45)cc3C(=O)N([C@@H](C)CO)C[C@@H]2C)cc1,?,/
C[C@H](CO)N1C[C@H](C)[C@H](CN(C)Cc2ccc(C(=O)O)cc2)Oc2c(NC(=O)C3CCCCC3)cccc2C1=O,1.1,3.1
C[C@H]1CN([C@@H](C)CO)C(=O)c2cc(NC(=O)Nc3ccc4c(c3)OCO4)ccc2O[C@H]1CN(C)Cc1ccc(Cl)c(Cl)c1,1.9,-9.1
CN1[C@@H]2c3ccc(/C=C/c4ccccc4)c(=O)n3C[C@@H]2[C@@H](CO)[C@@H]1C(=O)NC1CCCCC1,-6.7,5.9
Cc1noc(C)c1S(=O)(=O)Nc1ccc2c(c1)C(=O)N([C@H](C)CO)C[C@H](C)[C@H](CN(C)S(=O)(=O)c1cccs1)O2,-21.4,-8.7
CN1CCN(C(=O)C[C@@H]2C[C@@H]3c4cc(NC(=O)NC5CCCCC5)ccc4O[C@@H]3[C@@H](CO)O2)CC1,2.3,8.7
CC(C)CC#Cc1cnc2c(c1)C(=O)N([C@H](C)CO)C[C@H](C)[C@@H](CN(C)Cc1ccc3c(c1)OCO3)O2,-34.1,-25.4
C[C@H]1CN([C@@H](C)CO)C(=O)c2cc(-c3cccnc3)cnc2O[C@H]1CN(C)C(=O)C1CC1,13.3,7.1
COc1ccc2c3c(n(C)c2c1)[C@H](CO)N(Cc1ccncc1)CC31CCN(C(=O)C2CCCCC2)CC1,-27.9,-22.5
C[C@@H]1CCCCO[C@@H](CN(C)C)[C@@H](C)CN([C@H](C)CO)C(=O)c2cc(NC(=O)Cc3ccccc3)ccc2O1,8.1,1.0
C[C@@H]1CN([C@@H](C)CO)C(=O)Cc2cc(NC(=O)Nc3ccc(F)cc3)ccc2O[C@@H]1CN(C)Cc1ccc(C(=O)O)cc1,21.3,16.8
O=C(Nc1ccc(F)cc1)N[C@H]1CC[C@@H](CCNC(=O)c2ccccc2F)O[C@@H]1CO,6.7,3.6
C[C@@H]1CCCCO[C@H](CN(C)C(=O)Nc2ccc3c(c2)OCO3)[C@H](C)CN([C@H](C)CO)C(=O)c2cc(NC(=O)CCCN(C)C)ccc2O1,11.1,7.9
O=C(C[C@@H]1C[C@@H]2c3cc(NC(=O)Nc4ccc(C(F)(F)F)cc4)ccc3O[C@@H]2[C@@H](CO)O1)NCc1ccc2c(c1)OCO2,-2.2,1.9
C[C@@H]1CN([C@@H](C)CO)C(=O)c2cc(NS(C)(=O)=O)ccc2O[C@@H](C)CCCCO[C@H]1CN(C)CC1CC1,30.6,13.4
COC(=O)[C@H]1[C@H](CO)[C@H]2Cn3c(ccc(-c4cncnc4)c3=O)[C@H]2N1CCC(F)(F)F,8.5,12.4
Cc1ccc(S(=O)(=O)N[C@@H]2CC[C@@H](CC(=O)N3CCc4ccccc4C3)O[C@H]2CO)cc1,-14.6,-4.0
CCCNC(=O)C[C@H]1CC[C@@H]2[C@H](COC[C@@H](O)CN2C(=O)Nc2c(C)noc2C)O1,13.1,15.6
C[C@@H]1CCCCO[C@H](CN(C)C(=O)Nc2cccc3ccccc23)[C@H](C)CN([C@@H](C)CO)C(=O)c2cc(NC(=O)Cc3ccccc3)ccc2O1,-5.6,-5.3
Cc1ccc(OC(=O)N(C)C[C@@H]2OCc3ccccc3-c3c(n(C)c4ccccc34)C(=O)N([C@H](C)CO)C[C@@H]2C)cc1,-3.3,-1.6
COc1ccc(-c2ccc([C@@H]3[C@@H](CO)N(C(=O)C4CCOCC4)[C@H]3C#N)cc2)cc1,4.4,2.1
C[C@@H](NC(=O)C[C@H]1CC[C@@H](NC(=O)C2CCOCC2)[C@H](CO)O1)c1ccccc1,9.9,7.4
CN(C)C(=O)c1cccc(-c2cccc(-c3nc(C(=O)N4CCCCC4)cc4c3[C@H](CCO)N([S@@](=O)C(C)(C)C)C4)c2)c1,0.4,14.5
C[C@@H]1CN([C@@H](C)CO)C(=O)c2cc(C#CC3(O)CCCC3)cnc2O[C@H]1CN(C)S(=O)(=O)c1ccc(F)cc1,4.2,6.7
C[C@H](CO)N1C[C@H](C)[C@@H](CN(C)C(=O)CCC(F)(F)F)OCCCC[C@H](C)Oc2ccc(NS(=O)(=O)c3cn(C)cn3)cc2C1=O,18.0,9.5
COCC(=O)N(C)C[C@@H]1[C@@H](c2ccccc2)[C@H](CO)N1C(=O)Cc1cccnc1,7.9,6.0
O=C(C[C@@H]1C=C[C@@H](NC(=O)C2CCC2)[C@H](CO)O1)NC1CCCCC1,-2.2,4.0
Cc1ccccc1S(=O)(=O)N[C@H]1CC[C@H](CCn2cc(-c3ccc(F)cc3)nn2)O[C@@H]1CO,10.8,3.9
COCC(=O)Nc1ccc2c(c1)OC[C@@H](C)N(C(=O)c1cccnc1)C[C@H](C)[C@@H](OC)CN(C)C2=O,-7.3,-1.3
Cc1cc(C(=O)Nc2cccc3c2O[C@H](CN(C)C(=O)NC(C)C)[C@H](C)CN([C@@H](C)CO)C3=O)n(C)n1,15.5,-0.7
C[C@@H]1CCCCO[C@@H](CN(C)Cc2ccc(C(=O)O)cc2)[C@@H](C)CN([C@H](C)CO)C(=O)c2cc(NC(=O)Nc3ccc(F)cc3)ccc2O1,19.2,14.3
COc1ccc(NC(=O)N[C@@H]2CC[C@@H](CCNS(=O)(=O)c3ccccc3F)O[C@@H]2CO)cc1,-24.5,-22.9
COc1ccc(-c2cnc3c(c2)C(=O)N([C@H](C)CO)C[C@H](C)[C@H](CN(C)Cc2ccc(F)cc2)O3)cc1,4.5,0.9
O=C(Nc1ccccc1)N[C@@H]1CC[C@H](CCNS(=O)(=O)c2ccccc2F)O[C@H]1CO,8.4,9.0
Cc1noc(C)c1S(=O)(=O)Nc1ccc2c(c1)C(=O)N([C@H](C)CO)C[C@H](C)[C@H](CN(C)Cc1ccc(-c3ccccc3)cc1)O2,-26.1,-26.4
CCCNC(=O)C[C@H]1CC[C@H]2[C@@H](COC[C@H](O)CN2C(=O)CC)O1,15.8,5.0
COc1ccc(NC(=O)N(C)C[C@@H]2Oc3c(NC(=O)NC(C)C)cccc3C(=O)N([C@@H](C)CO)C[C@@H]2C)cc1,-21.7,-23.3
C[C@@H]1CN([C@H](C)CO)C(=O)c2cc(NC(=O)c3ccccc3)ccc2O[C@@H](C)CCCCO[C@H]1CN(C)C(=O)Nc1cccc2ccccc12,?,/
C[C@@H]1CCCCO[C@@H](CN(C)C(=O)Nc2cccc3ccccc23)[C@H](C)CN([C@H](C)CO)C(=O)c2cc(NS(=O)(=O)c3cccs3)ccc2O1,7.1,7.9
O=C(Cc1ccncc1)N[C@@H]1CC[C@@H](CCn2cc(-c3ccccc3F)nn2)O[C@@H]1CO,1.8,6.3
CC(C)NC(=O)N(C)C[C@H]1Oc2c(NC(=O)C3CCOCC3)cccc2C(=O)N([C@@H](C)CO)C[C@@H]1C,9.4,12.8
COc1ccccc1-c1ccccc1[C@H]1[C@@H](C#N)N(C(=O)C2CCOCC2)[C@@H]1CO,2.2,3.8
COc1ccc(NC(=O)Nc2ccc3c(c2)C(=O)N([C@H](C)CO)C[C@H](C)[C@H](CN(C)Cc2ccccc2)OCCCC[C@@H](C)O3)cc1,-22.4,-27.7
C[C@H](CO)N1C[C@H](C)[C@H](CN(C)C(=O)CC2CC2)Oc2ncc(C#Cc3cccnc3)cc2C1=O,18.7,15.5
COc1ccc(S(=O)(=O)N(C)C[C@@H]2OCCCC[C@H](C)Oc3ccc(N(C)C)cc3C(=O)N([C@H](C)CO)C[C@H]2C)cc1,-11.6,-1.7
Cc1ccc(S(=O)(=O)N(C)C[C@H]2Oc3ccc(NC(=O)C4CC4)cc3CC(=O)N([C@@H](C)CO)C[C@H]2C)cc1,-7.6,-5.7

# Random excerpt: two records from the list
SMILES,Vaccinia stage,Vaccinia stage Venus
C[C@H](CO)N1C[C@H](C)[C@H](CN(C)C(=O)CC2CC2)Oc2ncc(C#Cc3cccnc3)cc2C1=O,18.7,15.5
COc1ccccc1-c1ccccc1[C@H]1[C@@H](C#N)N(C(=O)C2CCOCC2)[C@@H]1CO,2.2,3.8

# Complete entries as entered above. Order of screens: Vaccinia stage, Vaccinia stage Venus
# `CC(C)NC(=O)N(C)C[C@H]1Oc2c(NC(=O)C3CCOCC3)cccc2C(=O)N([C@@H](C)CO)C[C@@H]1C` is listed as 9.4, 12.8
# `C[C@@H]1CCCCO[C@@H](CN(C)C(=O)Nc2cccc3ccccc23)[C@H](C)CN([C@H](C)CO)C(=O)c2cc(NS(=O)(=O)c3cccs3)ccc2O1` is listed as 7.1, 7.9
# `Cc1noc(C)c1S(=O)(=O)Nc1ccc2c(c1)C(=O)N([C@H](C)CO)C[C@H](C)[C@H](CN(C)Cc1ccc(-c3ccccc3)cc1)O2` is listed as -26.1, -26.4
# `CCCNC(=O)C[C@H]1CC[C@H]2[C@@H](COC[C@H](O)CN2C(=O)CC)O1` is listed as 15.8, 5.0

# New compounds follow.
SMILES,Vaccinia stage,Vaccinia stage Venus
C[C@H]1CN([C@@H](C)CO)C(=O)c2cc(NS(=O)(=O)c3cccs3)ccc2O[C@H]1CN(C)C(=O)Nc1ccc(C(F)(F)F)cc1,9.1,2.3
CCS(=O)(=O)N1CCCCN2[C@H](CO)[C@H](c3ccc(-c4ccccc4)cc3)[C@H]2C1,-15.9,-9.6
COc1ccc(NC(=O)N(C)C[C@H]2Oc3ccc(NC(=O)Cc4cn(C)c5ccccc45)cc3CC(=O)N([C@H](C)CO)C[C@H]2C)cc1,12.0,5.2
CN1C(=O)c2cc(NC(=O)c3cccs3)ccc2OC[C@@H]2O[C@H](CC(=O)N3CCOCC3)CC[C@@H]21,-4.6,0.3
C[C@@H]1CN([C@@H](C)CO)S(=O)(=O)c2ccc(C#CCN(C)C)cc2O[C@@H]1CN(C)CC1CC1,14.8,13.5
CC(=O)N(C)C[C@H]1Oc2cc(C#CCN(C)C)ccc2S(=O)(=O)N([C@@H](C)CO)C[C@@H]1C,19.6,7.6
N#C[C@@H]1[C@@H](c2ccc(C#CC3CCCC3)cc2)[C@@H](CO)N1C(=O)Cc1ccccn1,12.7,15.7
CC(C)NC(=O)N(C)C[C@H]1OCCCC[C@@H](C)Oc2ccc(NC(=O)C3CCCCC3)cc2C(=O)N([C@H](C)CO)C[C@@H]1C,4.4&11.4,-6.0&-2.1
C[C@H]1CN([C@@H](C)CO)C(=O)Cc2cc(NC(=O)Nc3ccc(C(F)(F)F)cc3)ccc2O[C@@H]1CN(C)CC1CCCCC1,?,/
C[C@H](CO)N1C[C@H](C)[C@H](CN(C)C(=O)Nc2ccc(C(F)(F)F)cc2)Oc2c(NC(=O)c3cnccn3)cccc2C1=O,-4.1,-0.8
CCCNC(=O)C[C@@H]1CC[C@H]2[C@H](COc3ccc(NS(=O)(=O)c4ccccc4C)cc3C(=O)N2C)O1,-3.3,-5.2
CO[C@@H]1CN(C)C(=O)c2ccc(NC(=O)C3CC3)cc2OC[C@@H](C)N(C(=O)c2cccnc2)C[C@@H]1C,10.9,6.6
CO[C@H]1CN(C)C(=O)c2cc(NC(=O)C3CC3)ccc2OC[C@@H](C)N(Cc2ccccc2)C[C@@H]1C,-22.5,-15.3
C/C=C/c1cnc2c(c1)C(=O)N([C@@H](C)CO)C[C@H](C)[C@@H](CN(C)S(=O)(=O)c1ccc(F)cc1)O2,-0.8,-8.5
N#C[C@H]1[C@H](c2ccc(-c3cccnc3)cc2)[C@@H](CO)N1C(=O)C1CCC1,-27.9,-17.7
C[C@H](CO)N1C[C@H](C)[C@H](CN(C)Cc2ccccc2)Oc2c(NC(=O)Nc3cccc4ccccc34)cccc2C1=O,-15.7,-2.7
C[C@@H]1CN([C@H](C)CO)C(=O)c2cc(C#CCN(C)C)cnc2O[C@@H]1CN(C)Cc1ccc(C(=O)O)cc1,30.7,12.2
COc1ccc(NC(=O)Nc2ccc3c(c2)C(=O)N([C@@H](C)CO)C[C@H](C)[C@H](CN(C)C(=O)NC2CCCCC2)OCCCC[C@@H](C)O3)cc1,13.2,8.6
C[C@@H]1CCCCO[C@@H](CN(C)S(=O)(=O)c2cn(C)cn2)[C@@H](C)CN([C@H](C)CO)C(=O)c2cc(NC(=O)Nc3ccc4c(c3)OCO4)ccc2O1,12.7,5.9
O=C(N[C@@H]1C=C[C@H](CC(=O)N2CCC(Cc3ccccc3)CC2)O[C@H]1CO)c1cnccn1,5.7,3.5
CCC(=O)N1[C@@H](CO)[C@@H](c2ccccc2)C12CN(Cc1ccccc1Cl)C2,4.6,8.2
C[C@@H]1CN([C@H](C)CO)C(=O)c2cccc(NC(=O)C3CCCCC3)c2O[C@@H]1CN(C)Cc1ccc(Oc2ccccc2)cc1,-18.3,-23.6
COc1cccc(C(=O)Nc2ccc3c(c2)C(=O)N(C)[C@H]2CC[C@@H](CC(=O)N[C@H](C)c4ccccc4)O[C@H]2CO3)c1,-28.1,-21.0
CO[C@@H]1CN(C)C(=O)c2ccc(NS(C)(=O)=O)cc2OC[C@H](C)N(CCC(F)(F)F)C[C@H]1C,5.0,1.9
COCC(=O)N(C)C[C@H]1Oc2cc(C#Cc3cccnc3)ccc2S(=O)(=O)N([C@@H](C)CO)C[C@@H]1C,-10.6,-2.0
CCCNC(=O)N1CC(=O)N2[C@H](CO)[C@@H](c3ccc(-c4ccc(C)cc4)cc3)[C@@H]2C1,20.0,21.5
C[C@@H]1CN([C@@H](C)CO)C(=O)c2cc(C#CCc3ccccc3)cnc2O[C@H]1CN(C)C(=O)C1CCOCC1,9.8,3.9
COc1ccc(S(=O)(=O)Nc2ccc3c(c2)CC(=O)N([C@@H](C)CO)C[C@@H](C)[C@H](CN(C)Cc2ccc(Cl)c(Cl)c2)O3)cc1,?,/
CN(C)c1ccc2c(c1)[C@H]1C[C@H](CC(=O)NCCc3ccccc3)O[C@@H](CO)[C@H]1O2,5.9,6.5

# Screens as filed in PubChem BioAssay.
